Hedgehog inh = Hedgehog pathway signaling inhibitors, primary screen, luminescence, Shh-LIGHT2 cells, Gli-luciferase; actives 2.1% (n = 22,000); AID 2313, 2010; Shh-LIGHT2 Gli-luciferase reporter, 30 h; inhibition, % (concentration not given with the values);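 active = replicate mean of 65% or more; inconclusive = mean lower but half the replicates past it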;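 also: pathway switched on by Shh-conditioned medium diluted 1 in 25 in low serum; 100 nL library stock added to about 40 µL; 0% = median of neutral wells and 100% = positive control level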
YB-1 expression = inhibitors of YB-1 gene expression, primary screen, cell-based, fluorescence; U2OS, qRT-PCR YB-1 vs CDIP delta delta Cp, 16 h; active compounds read high; zero = DMSO, each unit about twofold; delta delta Cp (YB-1 minus CDIP) (no concentration beside the values); actives 0.37% (n = 30,000);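 active = delta delta Cp rounded down to an integer at or above 3, about 3 SD of DMSO wells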;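 also: higher means less YB-1 transcript or more CDIP transcript relative to DMSO; stock transfer was 100 nL into about 100 µL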
PD-1 reversal = activators reversing PD-1 mediated T-cell inhibition, primary screen, luminescence, primary human CD4 T cells, PD-L1 beads; CellTiter-Glo 96 h; AID 2316, 2010; activation, % (no concentration beside the values); 29,000 tested, under 10 active;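 active = replicate mean of 50% or more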;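 also: 0% = median vehicle wells and 100% = positive control; 100 nL library stock added to about 50 µL; numbers are from one replicate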
MITF inh = inhibitors of MITF, primary screen, MITF inhibitor project, cell-based, luminescence | AID 2240, 2010 | TRPM1 promoter luciferase, 24 h | inhibition, % (concentration not given with the values) | actives 0.28% (n = 37,000);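 active = most replicates at 85% or more, or half of them and the mean; inconclusive = half reach 85% but not the mean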;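 also: human melanocyte line stably carrying TRPM1 promoter luciferase reporter; 0% = vehicle wells and 100% = a positive control; the first replicate is given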
* hit, by the source's call; ? = inconclusive; . = not tested or not shown. These rows are one share of the data; count on the stated rates, not on these rows.

SMILES	Hedgehog inh	YB-1 expression	PD-1 reversal	MITF inh
C[C@H]1CN([C@@H](C)CO)C(=O)Cc2cc(NC(=O)Nc3cccc4ccccc34)ccc2O[C@H]1CN(C)Cc1ccc(Cl)c(Cl)c1	-37	0.11	-1.3	3
C[C@@H]1CCCCO[C@H](CN(C)S(=O)(=O)c2cn(C)cn2)[C@@H](C)CN([C@H](C)CO)C(=O)c2cc(NS(=O)(=O)c3ccc(Cl)cc3)ccc2O1	-36	0.21	1.0	1
CC/C=C\C[C@@H]1C(=O)C=C[C@@H]1CCCCCCCC(=O)O	37	1.4	-7.6	-15
COc1cc2ccc(=O)oc2cc1OCC(O)C(C)(C)O (configuration not stated)	-33	-0.39	-0.1	9
O=C(Oc1cc(OC(=O)c2ccco2)cc(OC(=O)c2ccco2)c1)c1ccco1	-7	0.12	-1.1	-1
C[C@@H]1CN([C@@H](C)CO)C(=O)c2cccc(NS(=O)(=O)c3ccc(Cl)cc3)c2O[C@H]1CN(C)Cc1ccc(C(F)(F)F)cc1	-6	0.22	-0.6	4
Cc1noc(C)c1NC(=O)N(C)C[C@H]1Oc2ccc(NC(=O)CCC(F)(F)F)cc2C(=O)N([C@H](C)CO)C[C@@H]1C	-13	0.16	1.2	-3
COc1ccc(S(=O)(=O)N(C)C[C@@H]2Oc3c(NC(=O)NC4CCCCC4)cccc3C(=O)N([C@@H](C)CO)C[C@H]2C)cc1	-38	-0.68	.	13
C[C@@H]1CN([C@H](C)CO)C(=O)c2cc(NC(=O)c3ccncc3)ccc2O[C@H]1CN(C)C(=O)Nc1ccccc1	-37	-0.099	0.1	13
C[C@H]1CN([C@@H](C)CO)C(=O)Cc2cc(NC(=O)Nc3ccc(C(F)(F)F)cc3)ccc2O[C@H]1CN(C)CC1CC1	29	0.11	.	5
CCOC(=O)c1ccc(NC(=O)CCC2COc3ccccc3O2)cc1 (configuration not stated)	.	.	2.3	2
Cc1ccc(S(=O)(=O)N(C)C[C@@H]2Oc3c(NS(=O)(=O)c4c(C)noc4C)cccc3C(=O)N([C@H](C)CO)C[C@@H]2C)cc1	42	0.17	-2.2	-6
CCn1c(C)[n+](CC)c2ccc(S(=O)(=O)NC)cc21	-18	-0.081	5.6	-4
O=C(CC(c1ccccc1)c1ccccc1)NC1CCCC1	.	-0.48	-0.9	5
C[C@H](CO)N1C[C@H](C)[C@@H](CN(C)Cc2ccncc2)Oc2c(NS(=O)(=O)c3ccc(Cl)cc3)cccc2C1=O	-21	0.71	-4.8	2
COc1ccc(C)cc1NC(=O)CNS(=O)(=O)c1cc(Cl)ccc1Cl	.	.	-1.0	2
Cc1cc(C(=O)Nc2cccc3c2O[C@H](CN(C)S(=O)(=O)c2cccs2)[C@H](C)CN([C@@H](C)CO)C3=O)n(C)n1	49	20*	1.8	-9
Cc1c(NC(=O)C(C)Oc2ccc(Cl)cc2Cl)cccc1-c1nc2ccccc2o1 (configuration not stated)	.	.	-0.8	75
C[C@H](CO)N1C[C@H](C)[C@H](CN(C)Cc2ccccc2)Oc2ccc(NC(=O)CCC(F)(F)F)cc2C1=O	.	0.028	2.5	-3
Cc1ccc(S(=O)(=O)NCC(C)O)cc1-c1nnc2c3ccccc3c(C)nn12 (configuration not stated)	.	.	-1.2	-30
CC(CCc1ccc(O)cc1)NCCc1ccc(O)c(O)c1 (configuration not stated)	33	0.22	.	-9
CCOC(=O)c1ncn(Cc2ccccc2)c1N	.	0.43	0.5	-7
CCCC1=C(C(=O)OCC)C(c2cccnc2)n2ncnc2N1 (configuration not stated)	.	.	0.2	-35
COc1cccc(NC(=O)CSc2nc3ccccc3c(=O)n2-c2ccc(Br)cc2)c1	.	.	-0.4	-17
C[C@@H]1CN([C@@H](C)CO)C(=O)c2cc(NC(=O)Cc3ccccc3)ccc2O[C@@H]1CN(C)Cc1ccc(Oc2ccccc2)cc1	.	-0.26	.	13
CNC[C@H]1Oc2c(NC(=O)c3ccncc3)cccc2C(=O)N([C@@H](C)CO)C[C@H]1C	-15	0.19	-0.1	-2
Cc1noc(C)c1S(=O)(=O)Nc1ccc2c(c1)C(=O)N([C@@H](C)CO)C[C@@H](C)[C@@H](CN(C)S(=O)(=O)c1cccs1)O2	11	0.38	-1.3	2
C[C@H]1CN([C@@H](C)CO)C(=O)c2cccc(NC(=O)NC3CCCCC3)c2O[C@H]1CN(C)S(=O)(=O)c1ccc(F)cc1	103*	-0.088	0.7	24
C[C@H](CO)N1C[C@H](C)[C@H](CN(C)Cc2ccccc2)Oc2ccc(NC(=O)Nc3ccc(C(F)(F)F)cc3)cc2CC1=O	7	0.044	0.1	-1
Cc1ccccc1OCC(=O)Nc1cccc(NC(=O)c2ccc(C(C)(C)C)cc2)c1	.	.	-0.3	3
Cc1ccc(S(=O)(=O)N(C)C[C@H]2Oc3ccc(NS(=O)(=O)c4ccc(F)cc4)cc3CC(=O)N([C@H](C)CO)C[C@H]2C)cc1	-4	-0.11	-2.9	-2
COC(=O)C1=C(N)Oc2cc(C)n(Cc3ccccc3)c(=O)c2C1c1ccncc1 (configuration not stated)	-22	0.04	0.7	4
O=C(CSc1nnc(Nc2ccccc2)n1-c1ccccc1)Nc1ccc2c(c1)COC2=O	.	.	-1.8	-3
Cc1noc(C)c1NC(=O)N(C)C[C@H]1Oc2c(NS(=O)(=O)c3ccccc3)cccc2C(=O)N([C@@H](C)CO)C[C@H]1C	-1	-0.37	3.6	-5
C[C@H](CO)N1C[C@H](C)[C@@H](CN(C)Cc2ccc(Oc3ccccc3)cc2)Oc2c(NC(=O)c3cnccn3)cccc2C1=O	53	-0.61	-6.5	1
COc1ccc(NC(=O)Nc2ccc3c(c2)C(=O)N([C@@H](C)CO)C[C@H](C)[C@@H](CN(C)S(=O)(=O)c2ccc(Cl)cc2)O3)cc1	.	-0.54	2.4	?
COc1ccc(NC(=O)N(C)C[C@H]2Oc3c(NC(=O)c4nc5ccccc5s4)cccc3C(=O)N([C@H](C)CO)C[C@@H]2C)cc1	23	-0.3	.	5
C[C@H](CO)N1C[C@H](C)[C@@H](CN(C)Cc2ccc(C(F)(F)F)cc2)Oc2ccc(NC(=O)c3ccncc3)cc2C1=O	17	0.37	0.5	8
O=C(CSc1nc2ccccc2s1)c1ccc2c(c1)OCCO2	.	.	-0.9	-33
C[C@@H]1CN([C@H](C)CO)C(=O)Cc2cc(NC(=O)Nc3cccc4ccccc34)ccc2O[C@@H]1CN(C)Cc1ccc2c(c1)OCO2	32	0.22	-1.1	24
C[C@@H]1CN([C@H](C)CO)C(=O)c2cc(NC(=O)C3CC3)ccc2O[C@H]1CN(C)S(=O)(=O)c1ccc(Cl)cc1	.	-0.22	-1.8	-12
CC(C)(C)Nc1nc(SCC(=O)Nc2ccccc2)nc(N2CCOCC2)n1	.	.	-3.1	15
Cc1cc(OCC(=O)NCc2ccco2)c(C)cc1Br	.	.	-4.0	-26
COc1ccc(C(=O)NCCc2ccccc2)cc1Cl	-52	-0.34	0.7	-15
CC(NS(=O)(=O)c1ccccc1)C(=O)Nc1ccccc1C(F)(F)F (configuration not stated)	.	.	2.2	-12
COC(=O)CN(c1cccc(Cl)c1)S(=O)(=O)c1ccc(Cl)cc1	.	.	0.9	-4
COc1ccc(NC(=O)COc2ccc3ccccc3c2Br)c([N+](=O)[O-])c1	.	.	0.0	20
Cc1noc(C)c1NC(=O)Nc1ccc2c(c1)C(=O)N([C@H](C)CO)C[C@H](C)[C@@H](CN(C)C(=O)Nc1cccc3ccccc13)O2	-10	-0.09	1.1	-3
Cc1ccc(S(=O)(=O)Nc2ccc3c(c2)CC(=O)N([C@@H](C)CO)C[C@H](C)[C@H](CN(C)C(=O)Nc2ccc(F)cc2)O3)cc1	-18	-0.85	1.2	-5
CS(=O)(=O)c1sc(C(=O)NC(=S)Nc2ccc(OC(F)(F)F)cc2)c2c1C=CCC2	42	-0.23	0.5	-14

Further results follow:
SMILES	Hedgehog inh	YB-1 expression	PD-1 reversal	MITF inh
C[C@H](CO)N1C[C@H](C)[C@H](CN(C)S(=O)(=O)c2ccc(F)cc2)Oc2ccc(NS(=O)(=O)c3ccccc3)cc2CC1=O	-9	-0.14	.	-5
CNC[C@H]1Oc2c(NS(=O)(=O)c3ccc(F)cc3)cccc2C(=O)N([C@@H](C)CO)C[C@@H]1C	-59	0.54	1.5	-7
CC(=Nc1ccccc1C(F)(F)F)c1cccs1	28	-0.27	7.8	-14
CN(C)c1cc(O)c(C(=S)Nc2ccccc2)c(N(C)C)c1	-124	-0.55	-1.2	10
Cc1ccccc1-c1nc(SCC(=O)Nc2ccc(Br)c(Cl)c2)n[nH]1	.	.	0.7	-3
C[C@H](CO)N1C[C@H](C)[C@H](CN(C)Cc2ccccc2)Oc2ccc(NC(=O)Cc3ccccc3)cc2CC1=O	-32	0.039	2.1	-4
C[C@@H]1CCCCO[C@H](CN(C)Cc2ccncc2)[C@@H](C)CN([C@H](C)CO)C(=O)c2cc(NC(=O)Nc3cccc4ccccc34)ccc2O1	.	-0.058	1.3	-9
C[C@H]1CN([C@@H](C)CO)C(=O)Cc2cc(NC(=O)Nc3cccc4ccccc34)ccc2O[C@H]1CN(C)S(=O)(=O)c1cccs1	-17	0.44	0.3	5
C[C@H](CO)N1C[C@H](C)[C@@H](CN(C)S(=O)(=O)c2cccs2)Oc2c(NS(C)(=O)=O)cccc2C1=O	-17	-0.25	3.2	3
C[C@H]1CN([C@@H](C)CO)C(=O)c2cc(NS(=O)(=O)c3ccccc3)ccc2O[C@H]1CN(C)C(=O)NC1CCCCC1	.	-0.054	-1.1	4

Some of these compounds in order of molar mass, rising:
SMILES	Hedgehog inh	YB-1 expression	PD-1 reversal	MITF inh
Cc1ccccc1-c1nc(SCC(=O)Nc2ccc(Br)c(Cl)c2)n[nH]1	.	.	0.7	-3
C[C@H](CO)N1C[C@H](C)[C@H](CN(C)Cc2ccccc2)Oc2ccc(NC(=O)Cc3ccccc3)cc2CC1=O	-32	0.039	2.1	-4
C[C@H](CO)N1C[C@H](C)[C@@H](CN(C)S(=O)(=O)c2cccs2)Oc2c(NS(C)(=O)=O)cccc2C1=O	-17	-0.25	3.2	3
C[C@H]1CN([C@@H](C)CO)C(=O)c2cc(NS(=O)(=O)c3ccccc3)ccc2O[C@H]1CN(C)C(=O)NC1CCCCC1	.	-0.054	-1.1	4
C[C@H](CO)N1C[C@H](C)[C@H](CN(C)S(=O)(=O)c2ccc(F)cc2)Oc2ccc(NS(=O)(=O)c3ccccc3)cc2CC1=O	-9	-0.14	.	-5
C[C@H]1CN([C@@H](C)CO)C(=O)Cc2cc(NC(=O)Nc3cccc4ccccc34)ccc2O[C@H]1CN(C)S(=O)(=O)c1cccs1	-17	0.44	0.3	5
C[C@@H]1CCCCO[C@H](CN(C)Cc2ccncc2)[C@@H](C)CN([C@H](C)CO)C(=O)c2cc(NC(=O)Nc3cccc4ccccc34)ccc2O1	.	-0.058	1.3	-9

Carrying on:
SMILES	Hedgehog inh	YB-1 expression	PD-1 reversal	MITF inh
COc1ccc(NC(=O)Nc2ccc3c(c2)C(=O)N([C@@H](C)CO)C[C@@H](C)[C@@H](CN(C)CC2CCCCC2)O3)cc1	13	-0.13	0.6	-1
O=C(O)CC(CCc1ccccc1)OC1OC(CO)C(O)C(O)C1O (configuration not stated)	-31	0.21	.	.
O=c1c(Cl)c(NCc2ccco2)cnn1-c1ccccc1	-6	-0.94	6.2	-65
CC1CCc2c(sc3ncnc(SCC(=O)NCC4CCCO4)c23)C1 (configuration not stated)	.	.	-1.5	-49
C[C@@H]1CN([C@@H](C)CO)C(=O)c2cc(NC(=O)CCN3CCOCC3)ccc2O[C@H]1CN(C)Cc1ccncc1	.	-0.054	0.9	-17
C[C@H](CO)N1C[C@H](C)[C@H](CN(C)CC2CCCCC2)Oc2c(NC(=O)c3nc4ccccc4s3)cccc2C1=O	18	0.15	-4.9	-16
CCn1c(SCC(=O)Nc2ccc(F)c(Cl)c2)nnc1-c1cccc(C)c1	.	.	-0.1	20
C[C@@H]1CN([C@@H](C)CO)C(=O)c2cccc(NC(=O)c3nc4ccccc4s3)c2O[C@H]1CN(C)CC1CC1	-2	-0.19	-2.1	5
COc1ccc(CN(C)C[C@H]2Oc3ccc(NC(=O)Nc4ccccc4)cc3C(=O)N([C@@H](C)CO)C[C@H]2C)cc1	9	-0.69	0.9	-3
COc1cc(C(=O)NCc2ccccc2)cc(OC)c1OC	37	-0.42	-0.7	1
N#CCC(=O)Cc1ccccc1[N+](=O)[O-]	.	.	-6.6	18
Cn1c(CC(=O)Nc2ccc(Cl)c(Cl)c2)n[nH]c1=S	.	.	-0.2	-50
CCc1c(C)sc(NC(=S)Nc2cnccn2)c1C(=O)OC	.	.	-4.6	-17
Cc1ccc2c(c1)C(O)(CC(=O)c1cccnc1)C(=O)N2 (configuration not stated)	.	.	0.3	6
CCC(C)(NC(C)=O)C(=O)NC(Cc1c[nH]c2ccccc12)C(=O)NC(CCC(N)=O)C(=O)O (configuration not stated)	-23	0.034	0.3	2
Cc1nnc(SCc2cc(=O)[nH]c(=S)[nH]2)s1	.	.	0.9	-6
NC(=O)C(Cc1ccccc1)NS(=O)(=O)c1ccc2oc3ccccc3c2c1 (configuration not stated)	.	.	-1.4	12
Cc1cc(C)c(C#N)c(Sc2ncnc3c2sc2nc(C)cc(C)c23)n1	.	0.35	3.1	-7

Source: PubChem BioAssay
